Screening data from PubChem BioAssay.
Cruzain inh Det: cruzain (T. cruzi) inhibition with detergent | P25779 | purified cruzain, Z-FR-AMC fluorescence, 0.01% Triton | Potency, µM, without a hit: max response, negative = inhibition, actives largely listed as inhibitors | 200,000 compounds, 0.43% hits | AID 1478;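 also: plate controls were neutral wells for no effect and buffer without enzyme for full effect; nearly all actives have a fitted effect of over 40% in size; top concentration of the series not given in the record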
Target sequence (P25779 123-467 limits assumed): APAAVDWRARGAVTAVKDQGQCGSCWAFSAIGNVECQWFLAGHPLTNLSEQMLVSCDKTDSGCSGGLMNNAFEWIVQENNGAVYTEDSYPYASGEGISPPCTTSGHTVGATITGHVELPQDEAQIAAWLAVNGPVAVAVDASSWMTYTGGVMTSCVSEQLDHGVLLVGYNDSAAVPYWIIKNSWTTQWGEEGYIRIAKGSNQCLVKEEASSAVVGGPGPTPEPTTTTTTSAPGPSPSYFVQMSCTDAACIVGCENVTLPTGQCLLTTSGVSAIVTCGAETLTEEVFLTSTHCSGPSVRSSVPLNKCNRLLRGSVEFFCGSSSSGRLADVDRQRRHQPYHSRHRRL
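Sodium acetate buffer (100 mM, pH 5.5) containing 5 mM DTT and 0.01% Triton X-100 hosted 1.5 nM cruzain and test compound for 15 min at room temperature. Cleavage of 2 uM Z-FR-AMC was then tracked by fluorescence.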
Cruzain inh noDet: inhibitors of Trypanosoma cruzi cruzain without detergent; P25779; purified cruzain, Z-FR-AMC fluorescence, no detergent; Potency, µM, for inactives: max response, negative = inhibition, hits mostly inhibitors; 200,000 compounds, 2.3% hits; AID 1476;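 also: plate controls were enzyme without inhibitor for no effect and buffer without enzyme for full effect; nearly all actives have a fitted effect of over 40% in size; top concentration of the series not given in the record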
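Detergent-free condition (0.00005% Triton X-100) in acetate buffer pH 5.5 with DTT. 1.5 nM enzyme and compound were pre-mixed 15 min, then 2 uM Z-FR-AMC substrate added; reaction progress from fluorescence change between first and third reads (60 s).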
* marks the source's active call; other numbers are inactive results; ? = inconclusive; & = joins results of further samples. Calls follow the shape of the dose curve; as a rule, active = well fitted curve in the direction sought with a large enough effect; inconclusive = small, poorly fitted or top-dose-only effect, or another doubt; inactive = no such curve, though single readings can be large; an effect the other way counts as inactive or inconclusive. Potency is read from the fitted curve at half-maximal effect. An excerpt, so the mix of outcomes need not match the whole.

Fields – Cruzain inh Det, Cruzain inh noDet
CCCn1c(C)nc2c(N(CCN(C)C)Cc3ccccc3)nc(C)nc21
  -4.4%, 0.6%
COc1cc(C2c3cc4c(cc3C(O[C@@H]3OC5COC(c6cccs6)OC5C(O)C3O)C3COC(=O)C23)OCO4)cc(OC)c1O (some centres not stated)
  1.4%, ?
COC(=O)c1ccc(C(NC(=O)OCc2ccccc2)/C(C)=C/[C@@H](C)C(=O)NCCN2CCOCC2)cc1 (some centres not stated)
  -3.3%, ?
COC(=O)c1ccc(C(NC(=O)OCc2ccccc2)/C(I)=C/[C@@H](C)C(=O)NCC2CC2)cc1 (some centres not stated)
  -3.6%, 5.2%
Oc1cccc(Cl)c1Cl
  -0.7%, -1.2%
CCN1C[C@@]2(COC)C3[C@@H](OC)[C@H]4C1[C@@]3(C1C[C@]3(O)C(OC)[C@H](O)[C@@]4(OC(C)=O)C1[C@H]3OC(=O)c1ccccc1)[C@H](OC)C[C@H]2O (some centres not stated)
  -3.6%, -5.7%
O=C1Nc2ccc(Cl)cc2C(c2ccccc2Cl)=NC1O (configuration not stated)
  0.0%, -0.9%
Cc1ccc2oc(-c3ccccc3)c(O)c(=O)c2c1
  -2.0%, -20.6%
COC(=O)CCC(=O)OC1(C)C(=O)C=C2C=C(CCCNC(=O)OC(C)(C)C)OC=C2C1=O (configuration not stated)
  3.2%, 7.1%
O=C(O)CCCC/C=C\C[C@@H](O)/C=C/C=C/C=C\[C@@H](O)CCCC(=O)O
  12.6µM*, 3.98µM*
CCCCCCCCCCCCSCCOCCO
  -6.7%, ?
CC1=CC(=O)C2=C(C)CCC3C(C)C(=O)OC3C12 (configuration not stated)
  3.7%, -7.4%
C[C@H]1[C@H]2CC[C@H]3C4CC=C5C[C@@H](N(C)C)CC[C@]5(C)C4CC[C@]23CN1C (some centres not stated)
  2.0%, -3.4%
C[C@@]1(C(NC(=O)Cc2ccc(C(F)(F)F)cc2)c2ccc(-c3ccccc3)cc2)C[C@H]1C1CCCCC1 (some centres not stated)
  -0.8%, -8.6%
CC[C@H](C)C(=O)O[C@@H]1[C@H](O)[C@@H]2[C@H](CN3C[C@@H](C)CC[C@@H]3[C@@]2(C)O)[C@@H]2C[C@@]34O[C@@]5(O)[C@@H](OC(=O)[C@](C)(O)CC)CC[C@@]3(C)[C@H]5[C@H](OC(C)=O)[C@@H](OC(C)=O)[C@H]4[C@]12O
  2.3%, -8.0%
CCCCCC1=C2CNC(CCC)(C(=O)OC)C=C2C(C)C1=O (configuration not stated)
  7.3%, -3.8%
CCc1c2c(nc3cccc(SC)c13)COC2
  -13.2%, -4.0%
NC(N)=NC[C@@H]1COC2(CCCCC2)O1
  -2.1%, -1.8%
O=C(O)CCCC[C@@H]1SC[C@H]2NC(=O)N[C@@H]12
  0.6%, 0.3%
COC(=O)c1cccc(C23CC4(C2)[C@H](CN(C)[C@@H]4c2ccccc2)C3c2ccc(Cl)nc2)c1 (some centres not stated)
  -1.2%, -8.5%
CCC1CN2CCC1CC2[C@@H](NC(=S)Nc1cc(C(F)(F)F)cc(C(F)(F)F)c1)c1cccc2ccc(OC)cc12 (some centres not stated)
  -4.4%, 1.6%
CC(=C/C=C/C(C)=C/C=C/C=C(C)/C=C/C=C(C)/C=C/C(=O)O)/C=C/C(=O)O
  -1.1%, ?
O=C(O)CBr
  -3.4%, -2.1%
C=CCO[C@@H](Cn1ccnc1)c1ccc(Cl)cc1Cl
  -0.5%, -6.9%
NS(=O)(=O)c1cc([C@@]2(O)NC(=O)c3ccccc32)ccc1Cl
  -0.2%, -9.4%
COC(=O)c1nnc(C(=O)N(C)Cc2ccccc2)c2[nH]c3ccccc3c12
  1.2%, 3.9%
COC(=O)[C@H](Cc1ccccc1)NC(=O)[C@]1(C)C[C@H]1[C@H](NC(=O)OCc1ccccc1)c1ccccc1
  0.5%, 29.8%
CCC12CCCN3CCC4(c5ccc(OC)c(O)c5N(C(C)=O)C4CC1)C32 (configuration not stated)
  -1.0%, -0.6%
Nc1cc(Cl)ccc1Cl
  -3.8%, -4.3%
CCCn1c(C)nc2c(NCCOC)nc(C)nc21
  -0.4%, -0.2%
COc1ccc2c(c1)O[C@@H](c1ccc3c(c1)OCO3)[C@H](OC(=O)NCc1ccco1)C2=O
  -0.7%, 5.4%
CCCCNc1nc(C)nc2c1nc(C)n2CCC
  1.3%, 1.0%
Clc1ccc2nc(-c3ccccc3)[nH]c2c1
  -4.1%, 4.2%
CCN(CC)CCCC(C)n1c(-c2ccccc2)nc2c(N(CCOC)CCOC)nc(C)nc21 (configuration not stated)
  -6.1%, -1.5%
Cc1ccc(NC(=O)O[C@@H]2C(=O)c3cc(Br)ccc3O[C@H]2c2ccc3c(c2)OCO3)cc1Br
  5.3%, ?
CCCn1c(-c2ccc(F)cc2)nc2c(NC3CC4CCC(C3)N4C)nc(C)nc21 (configuration not stated)
  -2.8%, -1.2%
COC(=O)c1ccc(C(NC(=O)OCc2ccccc2)/C(C)=C/[C@@H](C)C(=O)Nc2ccc(OC)cc2)cc1 (some centres not stated)
  -4.0%, ?
CC(C)(C)OC(=O)NCCCC1=CC2=CC(=O)C(C)(OC(=O)c3ccco3)C(=O)C2=CO1 (configuration not stated)
  2.5%, 8.8%
O=c1cc(-c2cccc(O)c2)oc2cc(O)ccc12
  -0.3%, 11.3%
COC(=O)[C@@]1(Cc2ccccc2)[C@H]2c3cc(C(=O)N4CCCC4)n(Cc4ccc(O)c(OC)c4)c3C[C@H]2CN1C(=O)c1ccccc1
  -1.7%, ?
CCC(=O)O[C@@H]1[C@H](C)O[C@H](O[C@H]2[C@@H](N(C)C)[C@H](O)[C@@H](O[C@@H]3[C@@H](CC=O)C[C@@H](C)[C@@H](O)/C=C\C=C/C[C@@H](C)OC(=O)C[C@@H](OC(=O)CC)[C@H]3OC)O[C@H]2C)C[C@]1(C)O
  2.2%, 4.3%
COC(=O)[C@@H]1C[C@@]2(O)[C@H](O)[C@H](O)[C@H](O)C[C@H]2N1CC1CCCCC1
  4.4%, 4.0%
c1ccoc1
  -1.2%, -5.0%
C[C@@H](CNC1CCCCC1)OC(=O)c1ccccc1
  -0.2%, -5.0%
NCCCNCCCCNCCCNC(=O)Cc1ccc(O)cc1
  0.3%, -6.7%
C[C@@H]1C=C[C@](Cc2ccccc2)(C(=O)NCCCNc2ncc(C(F)(F)F)cc2Cl)N1C(=O)c1ccccc1
  -3.6%, 21.5%
CCCc1cc2c(n1Cc1ccc(C)cc1)C(C)C1CN(C(=O)c3ccccc3)C(C)(C(=O)OC)C21 (configuration not stated)
  0.1%, ?
CCC(=O)Oc1ccc2c(c1)CCC1C2CC[C@]2(C)C(OC(=O)CC)CCC12 (some centres not stated)
  1.4%, -1.5%
COc1cccc2oc(-c3ccccc3)cc(=O)c12
  -0.9%, 5.9%
CCC1=C2CC[C@H]3C(=O)N(CC)C(=O)[C@H]3[C@H]2[C@@]2(C)C(=NCC(=O)OC)OC(=O)N2C1=O
  6.9%, -6.9%
CCC1=C2CC[C@H]3C(=O)N(c4ccccc4)C(=O)[C@H]3[C@H]2[C@@]2(Cc3ccccc3)C(=NCc3ccccc3)OC(=O)N2C1=O
  -2.1%, -7.4%
CC(C)(C)C(=O)NC(c1ccc(Cl)cc1)[C@]1(C)C[C@H]1C1CCCCC1 (some centres not stated)
  0.3%, -0.6%
COC(=O)[C@@H]1C[C@@]2(O)[C@H](O)[C@H](O)[C@H](O)C[C@H]2N1Cc1ccc(N2CCOCC2)cc1
  2.1%, 3.2%
Nc1nc2c(c(=O)[nH]1)N(C=O)[C@H](CNc1ccc(C(=O)N[C@@H](CCC(=O)O)C(=O)O)cc1)CN2
  -4.1%, -11.8%
O=C1NC(=O)c2cc([N+](=O)[O-])ccc21
  0.6%, 11.2%
CCCC[C@H]1C[C@@H]1[C@@H]1N(C(C)=O)[C@H](c2cccc(OC)c2)CC12CC2
  -6.1%, ?
O=[N+]([O-])c1ccccc1S(=O)(=O)NCC1CCC(CNCC2CCc3ccccc3C2)CC1 (configuration not stated)
  -3.1%, -4.8%
NCCC[C@@H](CC(=O)N[C@@H]1CCCC[C@H]1C(=O)N[C@H](CC(=O)N[C@@H](CCC(=O)O)CC(=O)O)Cc1c[nH]c2ccccc12)NC(=O)C[C@H](Cc1c[nH]c2ccccc12)NC(=O)[C@@H]1CCCC[C@H]1N
  1.5%, 22.2%
COC(=O)c1ccccc1C(=O)OC
  1.4%, 15.2%
C=CCC(C)(O)c1ccccc1 (configuration not stated)
  3.8%, -3.7%

Full records, looked up by structure.
`COC(=O)c1ccccc1C(=O)OC` in the list: Cruzain inh Det: 1.4%; Cruzain inh noDet: 15.2%
`O=c1cc(-c2cccc(O)c2)oc2cc(O)ccc12` in the list: Cruzain inh Det: -0.3%; Cruzain inh noDet: 11.3%

The results go on:
Fields – Cruzain inh Det, Cruzain inh noDet
CCCCC/C=C\C\C=C/C=C/C=C/[C@@H](O)[C@@H](O)CCCC(=O)O
  1.4%, -8.8%
C1COC1
  -0.3%, -7.1%
CC(C)N1CCN(c2ccc(OC[C@@H]3CO[C@@](Cn4cncn4)(c4ccc(Cl)cc4Cl)O3)cc2)CC1
  -4.1%, -3.5%
CC(C)C(C)C
  -3.7%, -7.1%
CCCn1c(C)nc2c(N3CCC(N4CCN(C)CC4)CC3)nc(C)nc21
  3.8%, 3.0%
c1ccc(NNc2ccccc2)cc1
  1.7%, 4.4%
COc1cc(OC)c2c(c1)OC(c1ccccc1)CC2=O (configuration not stated)
  -3.5%, ?
COc1ccc2c(c1)C(=O)[C@@H](OC(=O)N[C@H](C)C1CCCCC1)[C@H](c1ccc(OC)c(Br)c1)O2
  -1.6%, -13.1%
O=c1cc(CO)occ1O
  0.6%, -9.2%
O=c1c(O)c(-c2ccc(O)c(O)c2)oc2ccccc12
  -9.1%, -8.9%
CCCCCC[C@H]1C(=O)O[C@H](C)[C@H](NC(=O)c2cccc(NC=O)c2O)C(=O)O[C@@H](C)[C@@H]1OC(=O)CC(C)C
  -10.2%, -7.4%
CC(C)C[C@@H](CC(=O)N[C@H](CC(=O)N[C@@H]1CCCC[C@H]1C(=O)N[C@H](CC(=O)N[C@@H](CCC(=O)O)CC(=O)O)CC(C)C)C(C)C)NC(=O)[C@@H]1CCCC[C@H]1N
  2.2%, ?
NC(=O)N[C@H]1NC(=O)NC1=O
  1.3%, -5.6%
COc1cc2oc(=O)cc(-c3ccc(-c4sccc4C=O)cc3)c2c(OC)c1OC
  -1.4%, -4.5%
CCCCC/C=C\C/C=C\C/C=C\C/C=C\CCCC(=O)N[C@H](C)CO
  5.7%&0.2%, 6.6%&10.2%
O=[N+]([O-])O[C@H]1CO[C@H]2[C@H]1OC[C@@H]2O[N+](=O)[O-]
  -1.1%, -5.7%
CCCCCCCCCCCCCCCC(N)=O
  1.0%, 3.5%
C=CCCC
  8.8%, -10.4%
Oc1ccccc1-c1ccccc1
  -4.5%, 2.0%
CCCn1c(C)nc2c(NCc3ccccc3)nc(C)nc21
  -1.8%, 0.5%
CC(C)(C)OC(=O)NCCCCC1=CC2=CC(=O)C(C)(OC(=O)c3ccco3)C(=O)C2=CO1 (configuration not stated)
  -3.3%, 8.7%
COC(=O)[C@H](Cc1ccccc1)NC(=O)O[C@@H]1Cc2cc(OC)ccc2O[C@H]1c1cccc(OC)c1
  -1.7%, -11.1%
CC12C=C(/C=C/CCc3ccco3)C(C)(C1)[C@H](CCc1ccco1)CC2=O (some centres not stated)
  -1.7%, -10.6%
C[C@@]12C=Cc3occc3C1CC[C@@]13C[C@@H](CCC12)[C@@](O)(CO)C3 (some centres not stated)
  1.2%, -1.2%
CC(C)Nc1oc(-c2ccccc2)nc1-c1cccc2ccccc12
  3.7%, -2.4%
CCCCCCN(C(=O)CCCCCN1C(=O)NC(C2CC2)C(C(=O)OCc2ccccc2)=C1C)C(C(=O)NCCCC)c1ccc(OCC(=O)OC)c(C(=O)OC)c1 (configuration not stated)
  4.1%, ?
Cc1ccc(Br)cc1
  1.8%, -4.6%
O=P(c1ccccc1)(c1ccccc1)N1CC2(CC2)CC(O)(c2ccccc2)C1 (configuration not stated)
  -3.6%, 2.3%
Cn1c(=O)c(C(=O)COC(=O)c2cc(C(F)(F)F)nc3c(C(F)(F)F)cccc23)c(N)n(Cc2ccccc2)c1=O
  3.1%, -2.4%
C=C(CC1(CNP(=O)(c2ccccc2)c2ccccc2)CC1)c1ccccc1
  3.4%, -2.8%
O=C(Nc1ccc2ccccc2c1)[C@H]1C[C@@H]1[C@H](NP(=O)(c1ccccc1)c1ccccc1)c1ccccc1
  -5.2%, ?
C=C(Nc1ccc(OCC)cc1)Nc1ccc(OCC)cc1
  0.9%, -3.3%
